D2 ag: activates the human D2 dopamine receptor | DiscoveRx PathHunter D2 beta-arrestin, luminescence, 90 min; 100% = 57 uM dopamine signal | activation, % (no concentration beside the values) | 360,000 compounds, 0.084% hits; in the data active = activation above about 40%; inconclusive = about 15% to 40%; inactive = below about 15%; also: compound concentration not given in the record; the text of the record calls up to 30% inactive
Target sequence (P14416 whole entry, looked up): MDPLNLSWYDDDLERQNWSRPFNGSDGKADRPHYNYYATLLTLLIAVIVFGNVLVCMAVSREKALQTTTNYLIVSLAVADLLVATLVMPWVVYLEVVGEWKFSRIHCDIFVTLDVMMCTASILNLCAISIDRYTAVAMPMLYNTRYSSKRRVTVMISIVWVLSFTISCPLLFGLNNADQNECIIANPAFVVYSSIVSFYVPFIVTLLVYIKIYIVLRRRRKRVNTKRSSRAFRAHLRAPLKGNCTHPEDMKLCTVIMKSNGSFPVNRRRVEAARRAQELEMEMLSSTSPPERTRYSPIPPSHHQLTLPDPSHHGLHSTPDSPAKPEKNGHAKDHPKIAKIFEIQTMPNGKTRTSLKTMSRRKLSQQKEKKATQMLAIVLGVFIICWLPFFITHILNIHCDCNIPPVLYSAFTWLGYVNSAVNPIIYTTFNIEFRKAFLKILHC
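DiscoveRx PathHunter D2 beta-arrestin cells (2,100/well) attached overnight, then compound-stimulated 90 min at 37 C in HBSS/10 mM HEPES/0.1% Tween-20 buffer; beta-galactosidase complementation read by luminescence after 1 h at ambient temperature. Dopamine 57 uM final (EC100) as control.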
CtBP-E1A blk: CtBP/E1A binding inhibition. 340,000 compounds, 0.49% hits. activity change, % (test concentration not listed). AlphaScreen GST-E1A/His-CtBP binding, 1536-well; hits give low values; control for the full effect not named in the record; in the data active means activity change below about -65%; inconclusive means about -30% to -65%; inactive means above about -30%; also: % is scaled to controls: 0 for no effect and ±100 for the full control effect
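AlphaScreen with 125 nM GST-E1A and 125 nM His-CtBP (5X stocks) in Tris pH 8.0, 300 mM NaCl, BSA, Tween 20, TCEP. Compounds preincubated 2 h at 37 deg C, then glutathione donor/nickel acceptor beads added for 1 h at 37 deg C in dark.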
gsp antagonist: antagonizes gsp, the McCune-Albright syndrome mutation; gsp-mutant cells, cAMP HTRF, 30 min; control for the full effect not named in the record; Potency, µM (series often up to 76.9 µM), for the others: top-dose activity change, negative = inhibition, usual class: inhibitors; 340,000 compounds, 0.4% hits; AID 624288; active = falling curve of any shape with a large fitted effect; inconclusive = falling curve, mostly with a smaller effect; inactive = flat or rising curve; cell line not stated here;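 also: intracellular cAMP measured with PDE inhibitor Ro 20-1724 present during compound exposure; potency is read from the fitted curve at half-maximal effect; % is scaled to controls: 0 for no effect and ±100 for the full control effect; nearly all actives have a fitted effect of over 65% in size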
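Measurement of cellular cAMP by homogeneous time-resolved fluorescence following a 30 min compound exposure at 37C. The PDE inhibitor […] was present throughout; the assay buffer was DPBS with 0.05% BSA and 0.005% Tween 20.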
D2 potentiator: potentiates the human D2 dopamine receptor allosterically; potentiation, % (concentration not given with the values); DiscoveRx D2 beta-arrestin cells, luminescence, 90 min; 100% = 57 uM dopamine signal; 360,000 compounds, 0.23% hits; active = potentiation of 50% or more; inconclusive = 30% to 50%; inactive = 30% or less;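 also: tested on top of an EC20 dose of dopamine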
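D2 cells co-treated with compound plus 50 nM dopamine (EC20) for 90 min at 37 deg C to detect potentiation. Beta-arrestin recruitment was read as enzyme-fragment luminescence after 1 h at ambient temperature. Full response was set by 57 uM dopamine.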
Six1-Eya2 blk: blocks human Six1 binding to Eya2; AID 651725; 360,000 compounds, 0.56% hits; AlphaScreen GST-Six1/His-Eya2 binding, biochemical; hits give low values; control for the full effect not named in the record; activity change, % (concentration not given with the values); Q15475+O00167; in the data active = activity change below about -65%; inconclusive = about -30% to -65%; inactive = above about -30%; also: % is scaled to controls: 0 for no effect and ±100 for the full control effect
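Homogeneous AlphaScreen proximity assay pairing GST-Six1 with His-tagged Eya2 (added as 5X mix: 250 nM and 500 nM) in 50 mM Tris pH 8.0, 300 mM NaCl, 1 mM TCEP. Glutathione donor and nickel acceptor beads; 1 h, 37 °C, dark.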
gsp ag: gsp mutant agonism; gsp mutant cells, cAMP HTRF, 30 min; control for the full effect not named in the record; Potency, µM (top dose mostly 76.9 µM), for inactives: at the highest dose activation (cAMP increase), hits mostly activators; 340,000 compounds, 0.13% hits; active = well fitted activation curve with a large enough effect; inconclusive = small, poorly fitted or top-dose-only effect, or another doubt; inactive = no such curve, though single readings can be large or run the other way; cell line not stated here;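 also: phosphodiesterase inhibitor Ro 20-1724 added with compounds to block cAMP breakdown; potency is read from the fitted curve at half-maximal effect; nearly all actives have a fitted effect of over 60% in size; about a fifth of the inactives were tested at one dose only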
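Cells in DMEM/10% FBS with G418 were pretreated with compounds in DMSO plus […] (300 uM stock) for 30 min at 37C. cAMP was measured by HTRF (cAMP-d2 plus anti-cAMP antibody-K) after 30 min at room temperature.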
Starred values were filed as active, the others as inactive; ? = inconclusive; . = no result given; [ ] = remark or other dose.

SMILES | D2 ag | CtBP-E1A blk | gsp antagonist | D2 potentiator | Six1-Eya2 blk | gsp ag
COc1ccc(Nc2cc(Cl)nc(N)n2)cc1 | -0.6 | -5 | 2% | 0 | -14 | -29%
COC(=O)Cn1c(CCS(=O)(=O)c2ccc(C)c(C)c2)nc2ccccc21 | -2.3 | -2 | -2% | -8 | -2 | 10%
CCN(/N=C/c1ccccc1)c1cc(=O)n(C)c(=O)[nH]1 | -5.1 | 2 | 2% | 3 | 0 | -9%
N#Cc1c(N)nc(Sc2ccc(Cl)cc2)c(C#N)c1-c1ccccc1Cl | -1.3 | 2 | ? | 0 | 0 | 15%[15.4 µM]
Cc1ccc2c(Cl)cc(Cl)c(OCc3c(C)noc3C)c2n1 | -2.1 | 8 | -4% | -22 | 1 | 42%
CC(C)(C#N)NC(=O)C(=O)c1c(-c2ccccc2)cc2ccccn12 | -6.1 | 2 | 12% | -10 | -6 | -6%
Cc1ccc(C(=O)Nc2ccccc2N2CCCC2)s1 | -2.3 | -5 | -5% | 3 | -4 | -68%[inhibitor]
O=S(=O)(c1ccc2ccccc2c1)N1CCN(C(=S)Nc2ccc(F)cc2)CC1 | 2.3 | -10 | -12% | -11 | -17 | 1%
CCOC(=O)c1c(C)c(C(=O)NCc2ccco2)c(C)n1Cc1ccccc1 | -1.3 | -7 | 10% | -3 | -3 | -4%
COc1ccc(OC)c(NC(=O)CSc2nnc(CNC(=O)COc3ccc(Cl)cc3)o2)c1 | -2.7 | -4 | -8% | -2 | -3 | 5%
O=c1[nH]n(-c2ccccc2Cl)c(=O)c2ccccc12 | 1.5 | 3 | -2% | 11 | 3 | -20%[15.4 µM]
CCCCNC(=O)N(O)C1N(/N=C/c2cccnc2)C(=S)SC1(C)C (centres undefined) | -2.8 | -2 | 5% | -31 | 2 | -6%
CC(C)n1c(SCC(=O)Nc2ccc(N3CCOCC3)cc2)nnc1-c1ccco1 | -4.3 | 0 | -5% | -8 | -17 | -5%[15.4 µM]
CCc1ccccc1NC(=S)NCCSc1ccc(Cl)cc1 | -1.6 | -2 | -18% | -4 | -8 | 10%[15.4 µM]
Cn1c(-c2ccc3c(c2)OCO3)cnc1NCc1ccccc1 | -3.9 | -4 | 3% | -13 | -5 | 6%
CC1CCc2c(sc3nc(CN4CCOCC4)nc(N4CCc5ccccc5C4)c23)C1 (centres undefined) | 5.0 | -9 | ? | 14 | -28 | 2%
COc1cccc(C(=O)Nc2ccc(C3CC3(Cl)Cl)cc2)c1 (centres undefined) | 6.5 | . | ? | -11 | -2 | ?
CCc1cccc(CC)c1NC(=O)CSc1nc2ccc(N3C(=O)C4C5C=CC(C5)C4C3=O)cc2s1 (centres undefined) | -1.6 | -4 | -12% | -1 | -6 | -17%
CN1CCN(CC(=O)Nc2cc(N(C)C)nc3ccccc23)CC1 | -2.9 | -1 | -10% | -14 | 7 | 20%[15.4 µM]
CC(=O)Nc1ccc(-c2csc(NC(=O)C3CCN(S(=O)(=O)c4cccs4)CC3)n2)cc1 | 5.1 | -15 | -9% | -2 | 0 | -1%
CCN(CC(=O)Nc1c(F)cccc1F)C(=O)/C=C/c1ccc2c(c1)OCO2 | -7.3 | -16 | 3% | -11 | 17 | -18%[15.4 µM]
CNS(=O)(=O)c1cnccc1N1CCN(c2cccc(Cl)c2)CC1 | -1.8 | 3 | 0%[15.4 µM] | -18 | 0 | -10%
Cc1cccc(COc2ccc(/C=N/NC(=O)c3nnn(-c4nonc4N)c3C)cc2)c1 | 3.3 | 2 | 14% | -3 | 2 | 25%
COc1ccc(Cl)cc1C(=O)N1CCN(Cc2ccc3c(c2)OCO3)CC1 | -4.1 | . | -4% | -25 | -1 | -2%
CCC(NC(C)C)C(O)c1ccc(O)c(O)c1 (centres undefined) | -0.8 | 6 | -3% | 0 | 6 | .

Next section.
SMILES | D2 ag | CtBP-E1A blk | gsp antagonist | D2 potentiator | Six1-Eya2 blk | gsp ag
Cc1cc(C=O)c(C)n1-c1ccc(NC2CCCC2)c([N+](=O)[O-])c1 | 2.6 | ? | -12% | -2 | ? | 1%[15.4 µM]
CC12CCC3(CC1CCC1OC12)OCCO3 (centres undefined) | -1.4 | 5 | -8% | -14 | 11 | -4%
Cc1cccc(OCCCC(=O)NNC(=O)CCN2CCN(c3ccccc3)CC2)c1 | -1.5 | -6 | -2% | -33 | 8 | -4%[15.4 µM]
O=C(Nc1nnc(SCC(=O)N2CCOCC2)s1)c1ccccc1 | -2.8 | 1 | -5% | -16 | -1 | 11%
CCN=C(NCC)SC1CC(=O)N(c2ccc(OCC)cc2)C1=O (centres undefined) | -0.5 | -19 | 6% | -3 | 7 | -24%
Cc1ccc(C2CC2/C(=N/O)c2ccc(F)cc2)cc1 (centres undefined) | 1.0 | 4 | 8% | 11 | 11 | 17%
COc1ccccc1NC(=O)c1nn(C)cc1Br | -2.5 | 0 | 7% | 2 | 21 | -4%
CC(C)N1CCc2c(sc(NC(=O)c3ccc4ccccc4c3)c2C(N)=O)C1 | -7.8 | 3 | 0% | -27 | 1 | 28%
Nc1cc(C(=O)N2CCN(c3ccccc3Cl)CC2)ccc1N1CC2CC(C1)c1cccc(=O)n1C2 (centres undefined) | -1.1 | 3 | . | -5 | -4 | -33%[inhibitor]
COCC(=O)OCC(=O)Nc1ccc(Cl)cc1[N+](=O)[O-] | 2.1 | 3 | 5% | 9 | 9 | 1%
Cc1occc1C(=O)N1CCN(Cc2ccccc2)CC1 | 5.2 | 5 | 9% | -6 | 5 | -36%[inhibitor]
CCOC(CNC(=O)C(=O)Nc1cc2c3c(c1)CCC(=O)N3CCC2)OCC | -0.3 | -1 | 5% | -7 | -1 | 9%
CC(=C/c1ccco1)/C=N/NC(=O)CSc1nnc(SCc2ccc(C)cc2)s1 | 0.9 | -17 | -8% | -7 | -13 | -47%[inhibitor]
C/C(=N\NC(=S)NCc1ccccc1)c1ccc2ccccc2c1 | -1.1 | 4 | -12% | -37 | ? | 5%[15.4 µM]
C/C=C\C(=O)Nc1cccc(C2=NOC3(C2)C[C@@H](C(N)=O)N(C(=O)c2ccc(Cl)cc2)C3)c1 (some centres undefined) | -1.3 | 0 | 9% | -9 | -1 | .
O=C(NC(=S)N1CCCCCC1)c1cccc([N+](=O)[O-])c1 | -3.2 | 5 | -3% | -7 | 4 | -23%
COc1cccc(N(CC(=O)O)S(=O)(=O)c2ccccc2)c1 | -3.1 | 2 | 13% | -7 | 3 | 30%
COC(=O)c1ccccc1NC(=O)CSc1nnc(Cc2ccc(Cl)cc2)o1 | -0.6 | -2 | -8% | -4 | -2 | 30%
CC1CCCCC1NC(=O)CN1C(=O)NC(Cc2ccccc2)(Cc2ccccc2)C1=O (centres undefined) | -4.4 | 3 | 5% | -1 | 2 | -1%
Cc1cccnc1NC(=S)Nc1ccc(F)cc1F | -2.4 | -10 | . | -6 | -3 | -14%[15.4 µM]
CC1(C)Cc2cccc(C(=O)NCc3ccco3)c2O1 | -4.4 | 2 | -2% | -9 | 16 | ?
Cn1c(SCC(=O)NCCc2ccccc2)ncc(C(=O)Nc2ccc(F)cc2)c1=O | 12 | 7 | 20% | -20 | -12 | 37%[15.4 µM]
CCn1c(SCC(=O)NC2CCS(=O)(=O)C2)nnc1-c1ccccc1 (centres undefined) | 0.8 | 0 | 3% | -1 | -6 | 0%[15.4 µM]
O=C(COC(=O)c1c(F)cccc1Cl)NCC1CCCCC1 | 2.4 | 7 | -9% | -23 | 3 | -1%[15.4 µM]
Cc1ccc(S(=O)(=O)N2CCC(C(=O)NCCCN3CCOCC3)CC2)cc1 | -1.9 | -3 | 9% | 17 | 5 | 8%

In another format: four of the compounds above
smiles: Nc1cc(C(=O)N2CCN(c3ccccc3Cl)CC2)ccc1N1CC2CC(C1)c1cccc(=O)n1C2 (centres undefined)
  D2 ag: -1.1
  CtBP-E1A blk: 3
  gsp antagonist: .
  D2 potentiator: -5
  Six1-Eya2 blk: -4
  gsp ag: -33%[inhibitor]

smiles: COc1ccccc1NC(=O)c1nn(C)cc1Br
  D2 ag: -2.5
  CtBP-E1A blk: 0
  gsp antagonist: 7%
  D2 potentiator: 2
  Six1-Eya2 blk: 21
  gsp ag: -4%

smiles: CCn1c(SCC(=O)NC2CCS(=O)(=O)C2)nnc1-c1ccccc1 (centres undefined)
  D2 ag: 0.8
  CtBP-E1A blk: 0
  gsp antagonist: 3%
  D2 potentiator: -1
  Six1-Eya2 blk: -6
  gsp ag: 0%[15.4 µM]

smiles: COc1cccc(N(CC(=O)O)S(=O)(=O)c2ccccc2)c1
  D2 ag: -3.1
  CtBP-E1A blk: 2
  gsp antagonist: 13%
  D2 potentiator: -7
  Six1-Eya2 blk: 3
  gsp ag: 30%

The list continues:
SMILES | D2 ag | CtBP-E1A blk | gsp antagonist | D2 potentiator | Six1-Eya2 blk | gsp ag
CCOc1ccc(CCNC(=O)C2CSC3(C)CCC(=O)N23)cc1OCC (centres undefined) | -2.9 | -9 | 6% | -24 | 0 | 19%
COC(=O)c1nc(C(=O)OC)c(C(=O)OC)nc1C(=O)OC | -1.3 | 9 | 7% | -10 | 7 | ?
c1ccc(-n2nnnc2Oc2ccc(-n3ccnc3)cc2)cc1 | -4.2 | 8 | 16% | -13 | 5 | 6%
COc1ccc(NC(=O)NNC(=O)c2cc3occc3n2C)c(OC)c1 | 3.2 | . | -8% | 1 | -13 | 3%
O=C1Nc2ccccc2SC(c2ccccc2)C1O (centres undefined) | -3.1 | -3 | 15% | -14 | -21 | -28%
C/C(=N\NC(=O)c1ccc(Cl)cc1)c1cccc(NC(=O)c2cccnc2)c1 | -4.8 | 0 | -5% | -8 | -5 | -13%[15.4 µM]
Oc1[nH]c2ccccc2c1C=Nc1ccc2c(c1)OCO2 | -1.3 | -28 | ? | -5 | -27 | -47%[inhibitor]
Cc1ccc(NC(=O)C(C)OC(=O)Cc2c[nH]c3ccccc23)cc1S(=O)(=O)N1CCOCC1 (centres undefined) | -2.3 | -1 | -17% | -10 | -8 | 13%
Cc1c(Cl)cccc1NC(=O)C1COc2ccccc2O1 (centres undefined) | -0.6 | 2 | 5% | -4 | 9 | 5%
O=C(Nc1c(Cl)cc(Cl)cc1C(=O)NCCN1CCOCC1)c1ccc(Cl)cc1Cl | 0.9 | 1 | 6% | -13 | 2 | 11%
CCOC(=O)Cc1csc(N/N=C/c2ccc(Cl)cc2)n1 | -1.8 | -6 | 6% | 2 | 6 | -4%[15.4 µM]
O=S1(=O)c2cccc3cccc(c23)N1Cc1ccc(-c2nnco2)cc1 | -2.9 | 12 | 11% | -14 | 8 | -8%
C=CCn1c(SCC(=O)N2CC(=O)Nc3ccccc32)nc2scc(-c3ccccc3)c2c1=O | -3.7 | -1 | ? | 3 | -10 | -7%
CC1CCC(C(=O)c2c(O)c3ccccc3oc2=O)CC1 (centres undefined) | -3.3 | -7 | ? | -4 | -13 | 3%
CCn1c2ccccc2c2nc3ccccc3nc21 | -2.0 | 27 | 10% | -4 | 33 | 7%
COc1ccccc1-c1noc(CCC(=O)NC2CCCCC2)n1 | -3.0 | -6 | 4% | -5 | -7 | -60%[inhibitor]

Source: PubChem (National Center for Advancing Translational Sciences (NCATS))
